MLL AF4-AF9 inh: inhibitors of AF4 peptide binding to AF9, primary screen, biochemical, AlphaScreen, biotin-AF4 peptide, FLAG-AF9, single point. hit rate 0.47% among 350,000. inhibition, % at 10 µM. Protein AF-9 (Homo sapiens), P42568. AID 651704, 2012;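 active means every replicate reaching a set inhibition limit, whatever the replicate mean, cut at about 25% in these data; inconclusive means mean inhibition reaches that limit but some replicates miss it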;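 further: 0% = plate neutral control median and 100% = total signal loss; the record names both 10 and 1 µM as test concentration; the first replicate is given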
Target sequence (P42568 whole entry, looked up): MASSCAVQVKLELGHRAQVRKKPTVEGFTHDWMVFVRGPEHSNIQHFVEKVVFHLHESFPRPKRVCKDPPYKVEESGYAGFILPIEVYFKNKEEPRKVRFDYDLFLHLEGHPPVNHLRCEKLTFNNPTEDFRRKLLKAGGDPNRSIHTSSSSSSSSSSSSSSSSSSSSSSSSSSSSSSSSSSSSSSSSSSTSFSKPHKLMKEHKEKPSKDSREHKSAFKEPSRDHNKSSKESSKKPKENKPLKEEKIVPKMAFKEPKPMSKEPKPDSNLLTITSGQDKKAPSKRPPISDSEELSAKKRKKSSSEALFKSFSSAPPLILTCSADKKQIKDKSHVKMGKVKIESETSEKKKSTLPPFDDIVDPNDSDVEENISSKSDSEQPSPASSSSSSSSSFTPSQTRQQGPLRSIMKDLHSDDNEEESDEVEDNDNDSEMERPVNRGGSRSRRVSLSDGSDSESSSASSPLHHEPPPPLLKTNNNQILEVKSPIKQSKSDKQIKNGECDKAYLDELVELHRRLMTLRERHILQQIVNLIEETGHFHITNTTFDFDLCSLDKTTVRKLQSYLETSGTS
Calb FLC: C. albicans growth inhibition with fluconazole, primary screen, CaCi-2 strain, Alamar Blue fluorescence | C. albicans CaCi-2 (fluconazole-resistant clinical isolate) + fluconazole, 48 h | hit rate 0.57% among 300,000 | growth inhibition, % (test concentration not listed) | AID 1979, 2009;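 active means most replicates above 75%; inconclusive means exactly half above 75%; inactive means most below 75%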;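 further: all wells also contain fluconazole at 8 µg/ml as a sub-toxic cotreatment; 0% = median of DMSO wells and 100% = median of geldanamycin control wells; wells of about 8 µL received 7.5 nL stock; the first replicate is given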
Vif TR-FRET: inhibitors of Vif binding to APOBEC3G peptide, primary screen, biochemical, TR-FRET, GST-Vif 1-94, biotin-A3G peptide, dose response retest (AID 1117319); inhibition, %, or IC50 in µM where a hit was titrated; hit rate 0.57% among 260,000; TR-FRET GST-Vif / biotin-A3G peptide binding; higher % means a stronger effect; test concentration not given here; strong numbers were not always called active;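 active means above the screen mean plus three standard deviations and confirmed in dose response; inconclusive means results disagree or hit not tested in dose response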;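 further: Vif residues 1-94 fused to GST binding biotinylated APOBEC3G peptide 110-148; 0% = full assay without inhibitor and 100% = GST in place of GST-Vif; retest series ran down from 100 µM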
RanGTP-Imp inh: inhibitors of RanGTP-importin-beta interaction, primary screen, biochemical, FRET, CFP-Ran, YFP-importin-beta, homogeneous; hit rate 1.1% among 300,000; inhibition, % (concentration not given with the values); AID 2216, 2009; cell-free CFP-Ran/YFP-importin-beta FRET ratio; Ran GTPase (GTP-bound) - importin-beta complex;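 active means most replicates above 15%; inconclusive means exactly half above 15%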;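 further: 0% = DMSO wells and 100% = Ran loaded with GDP instead of GTP; wells of about 40 µL received 100 nL stock; the first replicate is given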
T cruzi repl: inhibitors of intracellular T. cruzi growth, primary screen, luminescence, NIH3T3 host cells; T. cruzi beta-gal in NIH3T3, 90 h; inhibition, % (concentration not given with the values); hit rate 1.4% among 300,000; AID 1885, 2009;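 active means mean inhibition across valid replicates above about 55%, limit read from the data; inconclusive means mean below that limit but half or more replicates reach it; inactive means mean below it, under half of replicates reach it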;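 further: signal also drops with host cell toxicity which is not excluded here; 0% = plate median of DMSO wells and 100% = zero luminescence signal; higher percent means less beta-gal luminescence so fewer parasites; stock transfer was 50 nL into about 50 µL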
LANA-H2A inh: blockers of LANA interaction with H2A/H2B – biochemical, FP readout, HTS, primary screen; inhibition, % (no concentration beside the values); Protein LANA1 (Human herpesvirus 8 type P (isolate GK18)), Q9QR71; cell-free LANA-H2A/H2B peptide, fluorescence polarization; AID 2629, 2010; hit rate 0.6% among 320,000; in the data active means inhibition mostly above about 10%, no sharp cut-off; inactive means mostly below about 6.7%;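 further: stock transfer was 7.5 nL into about 10 µL; 0% = median of vehicle wells and 100% = median of positive control wells; one replicate is shown; the record names a cut of 25% in any replicate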
Bfl-1 A1 inh: caspase 3/7 activation in MEF A1-2A-BIM cells, primary screen, A1 inhibitor project, cell-based, luminescence, HTS; Caspase-Glo 3/7 luminescence, 3 h; percent of clofoctol response, vehicle zero; caspase activation, % (test concentration not listed); hit rate 0.066% among 330,000;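 active means over half of replicate activation scores above 10%, or exactly half above 10 with the replicate mean above 10; inconclusive means replicate mean below 10 yet half the replicates above 10; inactive means over half of replicates below 10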;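 further: wells of about 30 µL received 50 nL stock; many hits fall short of the cut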
Beta cell apopt: inhibitors of cytokine-induced beta cell apoptosis, primary screen, luminescence; protection from apoptosis, % (test concentration not listed); hit rate 0.8% among 300,000; INS-1E cytokine-induced death, ATP luminescence, 48 h; percent of positive-control rescue, neutral wells zero;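 active means all replicates at 75% or more, or half of them and the mean; inconclusive means half reach 75% but not the mean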;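 further: 0% = cytokine-treated negative control wells and 100% = positive control rescue; higher means more ATP so stronger rescue from cytokine killing; wells of about 40 µL received 100 nL stock; the first replicate is given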
* hit, by the source's call; u = inconclusive; x = no result given.

SMILES	MLL AF4-AF9 inh	Calb FLC	Vif TR-FRET	RanGTP-Imp inh	T cruzi repl	LANA-H2A inh	Bfl-1 A1 inh	Beta cell apopt
O=C(Cn1cnc2ccccc2c1=O)c1ccc(Cl)cc1	-0.9	9.9	x	4.2	2.2	x	x	x
Cc1cccc(C2C3=C(Nc4[nH]n(-c5ccccc5)c(=O)c42)c2ccccc2C3=O)c1 (stereo not given)	5.2	9.7	1.6%	-0.1	14.9	x	x	x
NC(=O)c1ccsc1NC(=O)COC(=O)Cc1n[nH]c(=O)c2ccccc12	-22.1	x	2.8%	3.7	-8.3	-6.4	0.7	0.2
CC(C)(C)OC(=O)N[C@@H](Cc1ccccc1)c1nnc(S(=O)(=O)Cc2cccc(F)c2)o1	x	5.6	-4.5%	0.9	-24.1	-1.9	3.1	1.6
COc1ccc(OCc2nnc(SCC(=O)NCc3ccco3)o2)cc1	x	-4.7	18.8%	3.0	-0.8	0.2	0.0	-2.2
C=CCNC(=O)c1ccc(NC(=O)CC2SC(N3CCCC3)=NC2=O)cc1 (stereo not given)	3.3	1.8	-4.7%	u	-10.3	-2.2	-0.1	-6.5
CC(C)CNc1nc(Oc2ccc(=O)n(-c3ccccc3)n2)nc(N2CCOCC2)n1	x	13.3	-2.9%	8.4	21.2	-1.1	0.3	0.7
CC1(C)Cc2c(cnn2-c2cccc(F)c2)C(NC(=O)CCN2CCCC2=O)C1 (stereo not given)	-0.8	-3.7	28.1%	-0.7	3.1	2.1	0.0	x
CC(C)C(NC(=O)c1c(F)cccc1F)C(=O)N1CCN(S(=O)(=O)/C=C/c2ccccc2)CC1 (stereo not given)	1.0	x	0.7%	x	x	-1.4	1.7	-0.1
Cc1ccc(-c2nc(CS(=O)CC(=O)NCCC(C)C)c(C)o2)cc1 (stereo not given)	2.5	-6.7	13.3%	4.3	4.4	2.7	0.0	-9.5
Cn1cc(-c2nnnn2-c2ccc(Cl)cc2)c(=O)c2ccccc21	x	-4.3	2.7%	2.6	5.9	3.5	0.3	1.6
O=C(Cn1ncc2c3ccccc3n(Cc3cccc(Cl)c3)c2c1=O)NCC1CCCO1 (stereo not given)	9.9	-19.2	x	-11.3	20.9	-1.0	0.4	-8.6
C[C@H](CO)N1C[C@H](C)[C@@H](CN(C)CC2CCCCC2)Oc2c(NC(=O)CCC(F)(F)F)cccc2C1=O	5.7	x	x	x	x	-1.4	-0.3	0.0
Cc1occc1C(=O)N/N=C/C1=C(N2CCOCC2)C(=C\c2ccc(Cl)cc2)/CC1	-0.9	3.3	x	-2.1	15.9	-20.8	0.3	1.0
Cc1ccc2nc(NC3=NC(CC(=O)O)C(=O)N3)nc(C)c2c1 (stereo not given)	-10.5	-10.9	4.4%	5.9	-5.6	3.4	-0.4	-1.9
Cc1c(C(=O)N2CCN(c3ccc([N+](=O)[O-])cc3)CC2)sc2ncn(CC(=O)N3CCOCC3)c(=O)c12	4.0	-6.2	x	5.8	7.3	-2.9	1.2	2.9
CC(C)(C)NC(=O)c1cc(NC(=O)c2cccs2)cc(NC(=O)c2cccs2)c1	x	31.4	9.8%	-0.9	30.9	0.6	0.7	10.3
Cc1ccc(C23CC4CC(CC(NC(=O)N5CCN(C)CC5)(C4)C2)C3)cc1	x	-1.6	1.7%	5.5	x	5.6	1.1	0.5
O=C(CNc1cccc([N+](=O)[O-])c1)NCCCc1ccccc1	-6.0	-6.8	x	3.3	9.3	-1.3	1.4	-7.7
C[C@@H]1COC(=O)[C@@H](CC(=O)OC(C)(C)C)C/C=C\C[C@@H](CC(=O)N[C@H](CO)Cc2ccccc2)C(=O)N1	-0.1	x	x	x	x	-1.3	0.4	0.4
OCCNCCSc1ccc(Cl)cc1	-0.8	-4.6	u	-0.6	13.7	-7.7	-0.4	-6.5
CCC(=O)Nc1ccc(Br)c(Cl)c1	x	-7.4	-10.3%	6.0	6.3	1.2	-0.4	-2.5
Cc1ccc(SCC(=O)NC2CC2)cc1	-0.3	-0.8	x	-3.0	-2.8	-0.2	0.0	-3.8
COc1cccc(CNC(=O)CCC2CCCN(C(=O)c3ccc(C)nc3)C2)c1 (stereo not given)	2.0	2.1	x	-1.8	0.7	-2.9	-0.4	-1.3
CC(C)OCC(O)CN1CCNCC1 (stereo not given)	x	1.9	28.8%	0.5	-14.6	11.1	0.3	4.4
CCCCN(CC)C(=O)Cc1cn(C)c2ccccc12	x	-12.3	25.9%	-5.1	-11.1	-1.1	1.1	-0.7
O=C(CCn1c(=S)oc2ccccc21)N1CCN(c2ccc(F)cc2)CC1	-21.7	0.9	-10.0%	1.4	-4.4	1.5	1.1	-0.1
Cc1ccc2cc(C#N)c(NCCNC(=S)NCCCN(C)C)nc2c1C	6.2	34.0	x	6.3	25.6	2.8	1.1	3.3
O=C1S/C(=C\c2ccc(Cl)cc2)C(=O)N1CCn1cnnn1	x	x	u	x	-10.4	-3.5	0.0	-4.7
O=C(O)C1CCCN(S(=O)(=O)c2ccc3c(c2)OCCO3)C1 (stereo not given)	-1.9	20.7	3.3%	-5.0	0.1	-4.8	-0.4	-5.0
COc1ccc2nc(/C(C#N)=C\c3ccc(Oc4ccc([N+](=O)[O-])cn4)cc3)[nH]c2c1	x	2.9	u	-2.1	34.4	-1.1	2.1	u
Cc1cccc(N/C=C(\[N+](=O)[O-])S(=O)(=O)c2ccccc2)c1C	-0.5	-1.6	-3.3%	u	81.9*	2.3	0.3	-3.9
Cc1ccc(C)c(OCc2ccc(C(=O)Nc3ccc([N+](=O)[O-])cn3)o2)c1	-1.6	x	7.3%	x	x	x	-0.2	0.0
Cn1nc(-c2ccccc2)c(CSc2ccccc2)c1Cl	x	-3.8	14.0%	-0.1	-5.0	-11.8	0.0	-9.4
COc1ccc(C(=O)CSc2nnc(CCc3ccccc3)n2-c2ccccc2)cc1	x	8.1	5.9%	4.1	10.3	1.5	-0.5	1.6
O=C(CSc1n[nH]c(-c2ccncc2)n1)Nc1ccc(Cl)cc1	-4.7	-8.4	x	-1.2	-10.7	-2.6	0.1	1.3
Cc1ccc(NC(=O)CCNS(=O)(=O)c2ccc3c(c2)CCC(=O)N3)cc1C	-3.1	-4.6	-6.3%	-0.6	4.5	5.0	0.6	-1.1
COc1cccc(C(=O)Nc2cccc(C(=O)NCC(C)C)c2)c1	x	-6.3	x	-0.8	-0.7	-1.6	1.0	-2.2
CC(=O)Nc1ccccc1C(=O)C(=O)Nc1cccc(Br)c1	2.1	-1.4	-0.8%	5.4	-11.9	4.0	1.4	3.0
CC(/C=C/c1ccc(N(C)C)cc1)=N/N=C1/NC(=O)CC(C(=O)Nc2ccc(Cl)cc2)S1 (stereo not given)	6.1	0.6	5.4%	-1.4	-6.7	-0.9	-2.0	-13.5
COc1cc2c(cc1OC)CN(C1CCC(C)CC1)CC2 (stereo not given)	1.2	-5.8	x	1.7	-1.0	1.7	1.3	3.5
COc1cc(C(=O)NC2CCCc3ccccc32)ccc1OCC(=O)Nc1ccc(F)cc1 (stereo not given)	0.6	-4.6	-5.9%	-0.9	-4.3	-4.6	0.2	5.4
COC(C(=O)Nc1ccc(F)cc1)c1ccccc1 (stereo not given)	x	-2.6	10.2%	u	-9.3	-3.9	-1.2	-8.9
COc1ccccc1N1CCN(C(=O)c2cn(C)c3ccc(S(=O)(=O)N4CCOCC4)cc3c2=O)CC1	1.1	8.0	x	0.5	-11.2	-1.6	1.5	5.9
CCOC(=O)C(NC(=O)c1ccc(F)cc1)(Nc1nnc(C)s1)C(F)(F)F (stereo not given)	x	1.8	-2.1%	-2.6	-5.8	2.1	0.1	3.7
COc1cc(/C=C/C(=O)OCC(=O)c2ccccc2)cc(OC)c1OC	4.2	x	x	x	x	-3.9	0.1	-3.7
Cc1ccc(C(C)C)c(OCC(=O)Nc2ccc(N3CCN(S(C)(=O)=O)CC3)cc2)c1	x	x	u	x	x	50.0*	-0.8	-0.3
CC(C)CC(=O)Nc1ccc2c3c(cccc13)CC2	x	0.3	x	-1.1	-4.2	-0.6	0.5	-0.1
Cc1ccc(-n2nc3c(N4CCC(C(=O)N5CCCCCC5)CC4)nnc(C)c3c2C)cc1	x	13.0	x	-2.4	41.7	-4.7	0.2	6.1
COc1cccc(CN2CCNC(=O)C2CC(=O)NCCOc2cccnc2)c1 (stereo not given)	-0.1	-1.5	x	-0.7	-2.7	-3.5	-0.3	3.2
COc1cc(/C=C(\NC(=O)c2ccccc2)C(=O)NCCO)c([N+](=O)[O-])cc1OC	x	-3.0	22.5%	2.7	-3.8	8.3	0.1	-7.0
Oc1cc(Nc2ccccc2)cc2cccnc12	-2.0	x	x	x	x	2.6	0.5	36.2
O=C(CSc1ncccn1)NC1CCS(=O)(=O)C1 (stereo not given)	-1.2	-5.8	4.5%	1.9	2.3	-1.3	1.1	-4.3
CCOC(=O)CSc1ccc2nnc(-c3ccccc3)n2n1	-1.0	-7.6	-1.3%	5.8	-1.1	0.0	0.6	-3.3
N#C/C(=C\c1cccc(NC(=O)c2ccccc2Cl)c1)C(=O)NCCc1ccccc1	-2.4	-17.9	10.0%	2.0	-43.5	0.6	-0.3	1.8
CCN(CC)S(=O)(=O)c1ccc(OCC(=O)NC(=O)c2ccccc2OC)c([N+](=O)[O-])c1	-0.5	7.4	x	-3.8	5.9	-5.5	-0.6	-5.8
Cc1ccccc1S(=O)(=O)NC1OC(=O)C(Oc2ccccc2)=C1Br (stereo not given)	-2.7	-5.5	17.0%	-0.4	-5.3	-2.0	0.1	-4.4
O=C(NC1CCCCC1)C(c1ccccc1)N(Cc1ccco1)C(=O)c1csnn1 (stereo not given)	-4.8	-0.9	x	1.3	4.8	2.0	0.6	-3.0
Cc1ccccc1OCCNC(=O)c1ccccc1Sc1ccccc1C#N	x	2.2	25.9%	3.2	37.2	2.2	0.0	x
CCc1cc2c3c(c1)C1(C(=O)N3C(C)(C)CC2C)C(C#N)=C(N)N2C(=C1C#N)Nc1ccccc12 (stereo not given)	x	-6.6	14.1%	7.7	19.5	-0.7	0.3	-0.5
Going on with the list:
SMILES	MLL AF4-AF9 inh	Calb FLC	Vif TR-FRET	RanGTP-Imp inh	T cruzi repl	LANA-H2A inh	Bfl-1 A1 inh	Beta cell apopt
CC(C)c1nc2sc(C(=O)O)c(N)c2c2c1CCCC2	x	8.5	21.4%	9.8	1.0	3.6	0.4	1.5
COc1cccc(NC(=O)N2CCCC(C(=O)Nc3ccccc3OC)C2)c1 (stereo not given)	x	0.6	-2.0%	0.1	-2.2	-0.8	1.5	-2.9
O=C(OCC1COc2ccccc2O1)c1ccccc1F (stereo not given)	1.8	-2.5	-0.2%	0.5	-5.1	0.9	-0.8	1.1
COc1ccc(CN(CC(=O)NCC2CCCO2)C(=O)CCC(=O)Nc2nccs2)cc1 (stereo not given)	-1.4	-3.3	-0.9%	0.9	-3.5	-0.1	-0.5	-0.9
Cc1c(C#N)c2ncnc(-c3ccccc3)c2n1-c1ccccc1	x	-2.6	1.2%	0.6	4.3	-2.8	1.0	23.0
CCCCNc1nc2sc3c(c2c(=O)n1-c1cccc(Cl)c1)CCN(C)C3	x	-18.7	-4.0%	30.2*	x	-3.0	-0.2	-7.0

High-throughput results (PubChem BioAssay)
